Sa growth 42C: S. aureus growth inhibition | S. aureus RN4220 growth, OD600, 20 h, 42 °C; hits give low values | relative growth, % (concentration not given with the values) | 0.53% of 170,000 active | AID 720641;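 active = growth at 42 °C up to 50% and 20 or more points under that at 30 °C, or under 10% at both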;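 note: 300 nL library stock went into each well; scaled to the means of positive and negative controls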
HCMV NEC inh: cytomegalovirus nuclear egress complex inhibition; HTRF UL50-UL53 interaction, normalized percent inhibition; inhibition, % (concentration not given with the values); 0.15% of 190,000 active; AID 1918969;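 active = both replicates at 50% or more, plus weaker picks with an unusually low signal ratio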;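 note: stock transfer was 100 nL into about 20 µL; 0% = negative control wells and 100% = wells with untagged competitor protein; inactives centre near -12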
GIV Gai3 FP: blocks GIV peptide binding to rat Galpha-i3. P08753. Galpha-i3/FITC-GIV peptide fluorescence polarization, 90 min; hits give low values; scaled: aluminum fluoride 0%, vehicle 100%. percent of control (FP), % (no concentration beside the values). 0.42% of 210,000 active;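 active = replicate mean at 85% of control or lower, very high polarization wells dropped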;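 note: wells of about 15 µL received 100 nL stock; the first replicate is given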
Target sequence (P08753 whole entry, looked up): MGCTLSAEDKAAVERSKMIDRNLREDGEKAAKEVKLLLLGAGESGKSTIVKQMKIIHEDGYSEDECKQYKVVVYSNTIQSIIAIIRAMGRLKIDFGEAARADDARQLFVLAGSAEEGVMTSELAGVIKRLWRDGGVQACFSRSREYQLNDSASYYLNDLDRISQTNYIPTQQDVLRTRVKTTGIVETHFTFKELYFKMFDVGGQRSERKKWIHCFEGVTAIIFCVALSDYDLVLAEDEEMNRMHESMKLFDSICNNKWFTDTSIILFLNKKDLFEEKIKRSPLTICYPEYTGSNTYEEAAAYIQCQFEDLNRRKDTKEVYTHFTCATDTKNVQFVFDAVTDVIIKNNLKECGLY
Sa growth 42C second temp: also measured in Sa growth 42C; calls as there; relative growth, %; measured here: growth at 30 °C;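 optical density after 20 h as mean of two plates; 100% = untreated growth and lower means inhibition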
Active calls of the source: *; · = not tested or not shown; & = joins results of further samples.

Preview (two entries):
SMILES	Sa growth 42C	Sa growth 42C second temp	HCMV NEC inh	GIV Gai3 FP
Cc1ccc(-c2nc3cc(Cl)ccc3o2)cc1NC(=O)c1sc2ccccc2c1Cl	·	·	12	97
COc1ccc(C2CC(=O)C3=C(C2)Nc2ccccc2NC3c2cc([N+](=O)[O-])ccc2Cl)cc1OC (centres undefined)	·	·	-23	105

The list itself, from the start:
SMILES	Sa growth 42C	Sa growth 42C second temp	HCMV NEC inh	GIV Gai3 FP
Cc1ccc(-c2nc3cc(Cl)ccc3o2)cc1NC(=O)c1sc2ccccc2c1Cl	·	·	12	97
COc1ccc(C2CC(=O)C3=C(C2)Nc2ccccc2NC3c2cc([N+](=O)[O-])ccc2Cl)cc1OC (centres undefined)	·	·	-23	105
CCOC(=O)c1ccc(NC(=O)Cn2cc(C(=O)C3CC3)c3ccccc32)cc1	104	96	-9	98
CCCCn1nnnc1SCC(=O)NCc1ccccc1	114	95	4	102
O=C(Sc1ccccc1)c1cccnc1Oc1ccccc1	122	98	·	107
COc1ccc(CNC(=O)Cn2cnc3c(sc4ncccc43)c2=O)cc1	·	·	-56	123
CSc1ccc(C2c3[nH]c4ccccc4c3CCN2C(=O)CCC2CCCC2)cc1 (centres undefined)	89	99	·	99
CC1(C)CC(NCc2ccccc2F)CC(C)(C)N1	114	91	-5	·
COc1ccc(OC)c(NC(=O)c2n[nH]n3c2nc(=O)c2ccccc23)c1	69	68	2	105
CSc1cc(-c2ccc(Cl)cc2)nc(-c2cccs2)c1	85	88	18	98
COc1ccccc1NCC(=O)N/N=C1\CCS(=O)(=O)c2ccc(F)cc21	78	89	-31	·
CN(C)c1ccc(C(CC(=O)O)NC(=O)c2ccc(Cl)cc2)cc1 (centres undefined)	111	68	-3	107
CCSc1nc2c(c(=O)[nH]c(=O)n2C)n1C	92	88	-14	105
Cc1ccc(C)c(S(=O)(=O)c2nnn3c2nc(NC2CCCCC2)c2sccc23)c1	94	87	·	101
O=C(CN1CCN(c2ccccc2F)CC1)Nc1nc(-c2ccccc2)cs1	·	·	2	105
COc1ccc(CCNC(=O)c2cn(CC(C)C)c(=O)c3cc(OC)c(OC)cc23)cc1OC	95	94	·	101
CC(C)N(C(=O)CSc1nnc(CSc2ncccn2)n1C)C(C)C	99	95	-2	99
CCOC(=O)CC(=O)Nc1ccsc1C(=O)OC	114	86	·	112
COc1cc(C(=O)N(Cc2cccnc2)Cc2ccc(C)o2)cc(OC)c1OC	108	90	13	103
CCCCC(=O)Nc1nnc(-c2ccc(Cl)cc2)o1	-0.3*	0.0*	-2	102
Cc1ccccc1OCc1nc2c3cnn(C)c3ncn2n1	86	86	2	104
CC(NC(=O)c1nn2c(c1Br)NC(c1cccs1)CC2C(F)(F)F)c1ccccc1 (centres undefined)	·	·	-17	89
Cc1ccc(-n2nc(CO)c(C(=O)NCC(c3ccccc3)c3ccccc3)n2)cc1	94	87	-41	98
COC(=O)c1ccc(-c2ccco2)[nH]1	92	64	·	118
Cc1cccc2cc(CNCC3CCCO3)c(Cl)nc12 (centres undefined)	112	74	-10	107
O=C(O)C(Cc1ccccc1)N=Cc1c(O)c2ccccc2oc1=O (centres undefined)	94	81	-18	99
CCN(CC)S(=O)(=O)c1ccc(NN=c2c(=O)c3ccccc3c2=O)cc1	100	96	-39	·
NNC(=O)C(O)(c1ccccc1)c1ccccc1	100	95	-8	107
COc1ccccc1N1CCN(C(=O)c2cc(-c3ccccc3O)on2)CC1	96	84	-29	102
Cc1ccc(SC(C)C(=O)NCC2CCCO2)cc1 (centres undefined)	92	88	-4	·

Ordered by formula weight (largest number first): some entries from above.
SMILES	Sa growth 42C	Sa growth 42C second temp	HCMV NEC inh	GIV Gai3 FP
CC(C)N(C(=O)CSc1nnc(CSc2ncccn2)n1C)C(C)C	99	95	-2	99
CCCCC(=O)Nc1nnc(-c2ccc(Cl)cc2)o1	-0.3*	0.0*	-2	102
COC(=O)c1ccc(-c2ccco2)[nH]1	92	64	·	118

Part of the list above with just GIV Gai3 FP.
SMILES	GIV Gai3 FP
CCCCn1nnnc1SCC(=O)NCc1ccccc1	102
NNC(=O)C(O)(c1ccccc1)c1ccccc1	107
Cc1ccc(-n2nc(CO)c(C(=O)NCC(c3ccccc3)c3ccccc3)n2)cc1	98
O=C(O)C(Cc1ccccc1)N=Cc1c(O)c2ccccc2oc1=O (centres undefined)	99
Cc1ccc(-c2nc3cc(Cl)ccc3o2)cc1NC(=O)c1sc2ccccc2c1Cl	97

Later entries
SMILES	Sa growth 42C	Sa growth 42C second temp	HCMV NEC inh	GIV Gai3 FP
O=C(Nc1sc2c(c1C(=O)NCC1CCCO1)CCC2)c1cc(=O)c2cc(Cl)ccc2o1 (centres undefined)	104	86	-12&-14	103&99
Cn1c(CC(=O)Nc2ccc(Cl)cc2)nnc1SCc1nc2ccccc2c(=O)[nH]1	94	82	5	107
CCC(=O)Nc1cccc(NC(=O)COc2cc(C)cc(C)c2)c1	109	103	13	101
CC(=O)c1ccc(NC(=O)CSc2nnc3c(n2)[nH]c2ccccc23)cc1	106	102	-29	101
COc1cc2c(cc1OC)C(CNC(=O)OCc1ccccc1)NCC2 (centres undefined)	90	83	-1	103
Cc1nn(C)c(C)c1CNC(=O)CN1C(=O)C2CCCCN2c2ccc(S(=O)(=O)N(C)C)cc21 (centres undefined)	·	·	0	99
O=C1CC(c2ccccc2C(F)(F)F)c2c(c3ccccc3[nH]c2=O)O1 (centres undefined)	99	88	-8	102
CCOC(=O)c1c(NC(=O)c2cc3nc(-c4ccc(Br)cc4)cc(C(F)(F)F)n3n2)sc(C(C)=O)c1C	69	89	·	100
N#Cc1ccccc1CSc1nnnn1-c1ccccc1	97	37	-10	·
CSc1ccc(-c2sc(C)nc2C)nn1	96	66	-81	107
O=C(Cn1nnc2ccccc2c1=O)NC(=O)NCc1ccccc1	92	94	-9	·
COC(=O)c1cc(NC(=O)c2oc(=O)c3ccccc3c2-c2ccccc2)cc(C(=O)OC)c1	107	96	-22	101
O=S(=O)(c1ccc(F)cc1)c1cc(C(F)(F)F)cc(C(F)(F)F)c1	87	85	-36	101
Cc1ccc(-c2nn(CC(=O)Nc3cccnc3)c(=O)c3ccccc23)cc1	113	82	-10	·
CC(NC(=O)Cn1ncc2c1-c1ccccc1OC2)c1ccc2c(c1)OCCO2 (centres undefined)	94	96	-7	100
CCc1cc(C(Nc2cccc(C)n2)c2ccc3c(c2)OCO3)c(NC(=O)c2ccccc2)s1 (centres undefined)	·	·	-15	103
CCCCN(C)CCNC(=O)c1nn(-c2ccc(OC)c(Cl)c2)c(=O)c2c1c1ccccc1n2C	102	94	-7	100
Cc1ccc2nc(N3CCN(Cc4nnnn4Cc4ccccc4)CC3)c(C#N)cc2c1	98	85	-22	105
O=S(=O)(NCCCN1CCc2ccccc2C1)c1ccc(-c2cc(C(F)(F)F)no2)s1	98	94	-13	104
CN1CCOc2ccc(S(=O)(=O)N3CCc4ccccc4C3)cc21	·	·	4	104
Cc1c(C(=O)CSc2n[nH]c(=O)n2-c2cccnc2)sc2ccc(Cl)cc12	99	100	2	101
O=C(Nc1noc2ccccc12)c1cc2c(s1)-c1ccccc1CC2	91	73	-7	102
CC(C)Cn1cnc2nc(CSc3ccccc3NC(=O)COc3ccccc3)cc(=O)n21	·	·	5	104
CCOC(=O)CSc1nnc(-c2ccc(S(=O)(=O)NCc3cccs3)cc2)o1	113	85	-6	101
O=C(Cc1ccc(S(=O)(=O)N2CCOCC2)s1)Nc1nnc(C2CC2)s1	95	91	-21	·
CCOC(=O)c1c(C)[nH]c(C)c1S(=O)(=O)N(C)CC(=O)Nc1cc(Cl)ccc1C	106	80	·	106
CCOC(=O)C1=C(CSc2nc3ccccc3c(=O)n2C(C)CC)NC(=O)NC1C (centres undefined)	87	95	-24	·
CC1(C)C(/C=C/c2cccc(I)c2)=[N+]([O-])C(C)(C)N1O	95	85	-13	·
COC(=O)C1=C(O)/C(=C\c2ccccc2OC)N=C1C	135	89	·	107
CC(N)c1cc(F)c(Cl)cc1Cl (centres undefined)	83	91	-10	·
Cc1ccc(S(=O)(=O)N2CCC(Oc3ccc(-n4cnnn4)cc3)CC2)cc1	95	89	-16	96
CCOC(=O)c1ccccc1NC(=O)CN(c1ccccc1OC)S(=O)(=O)c1ccc(C)cc1	128	105	·	101
COc1ccccc1/C=C/CN1CC(C)OC(C)C1 (centres undefined)	97	104	-6	103
Cc1cc(C)n(Cc2ccc(C(=O)O)cc2)n1	132	87	-14	·
O=C(CSc1nc2ccccc2nc1Cc1ccc(Cl)cc1)N1CCN(c2ccccc2F)CC1	89	90	·	96
Cc1cc(Cl)ccc1NC(=O)C1CCCN(c2nnc(C)c3c(C)n(-c4ccccc4)nc23)C1 (centres undefined)	98	90	·	107
CCC(=O)Oc1ccc2c(C)c(C)c(=O)oc2c1	119	91	-55	104
O=c1cc(-c2ccccc2)nc(SCCOc2ccc3c(c2)OCO3)[nH]1	106	96	-12	102
Cc1cc(N/C=C2\CCCCC2=O)no1	95	99	-3	·
Cc1ccc(NC(=O)CCCn2nc(C)c3sc4ccccc4c3c2=O)c(Cl)c1	94	87	-16	103
Clc1ccc(-c2ccc(CNCC3CCNCC3)o2)c(Cl)c1	·	·	-25	108
CN(C)/C=C/C(=O)c1nn(-c2ccc(F)cc2)ccc1=O	104	98	-30	102
CCCCOc1ccc(CNC(=O)c2cnc3sc(N4CCCC4)nn3c2=O)cc1	103	99	·	107
O=c1oc2ccc(NS(=O)(=O)c3ccc(F)cc3)cc2s1	44	31	-36	103
Cc1cccc(NC(=O)CCNS(=O)(=O)c2ccc3c(c2)CCN3C(=O)C2CC2)c1	101	93	·	107

Another view of four compounds above:
| Molecule | Sa growth 42C | Sa growth 42C second temp | HCMV NEC inh | GIV Gai3 FP |
| --- | --- | --- | --- | --- |
| Cc1ccc(SC(C)C(=O)NCC2CCCO2)cc1 (centres undefined) | 92 | 88 | -4 | · |
| O=C(Nc1sc2c(c1C(=O)NCC1CCCO1)CCC2)c1cc(=O)c2cc(Cl)ccc2o1 (centres undefined) | 104 | 86 | -12&-14 | 103&99 |
| Cn1c(CC(=O)Nc2ccc(Cl)cc2)nnc1SCc1nc2ccccc2c(=O)[nH]1 | 94 | 82 | 5 | 107 |
| CCC(=O)Nc1cccc(NC(=O)COc2cc(C)cc(C)c2)c1 | 109 | 103 | 13 | 101 |

Following part
SMILES	Sa growth 42C	Sa growth 42C second temp	HCMV NEC inh	GIV Gai3 FP
CCn1cc2nc(SCc3ccccc3F)n(Cc3ccc(C)cc3)c(=O)c2n1	110	92	·	94
CCCOc1ccc(-c2nonc2NC(=O)COc2ccc(C)cc2)cc1OCCC	98	92	12	99
CCS(=O)(=O)N1CCc2cc(C(=O)Nc3cc(OC)c(Cl)cc3OC)ccc21	100	94	-4	99
CC1CC(C)CN(S(=O)(=O)c2ccc(NC(=O)C3COc4ccccc4O3)cc2)C1 (centres undefined)	98	98	·	101
c1cnc2sc(-n3cccc3)nc2c1	110	99	0	104
CC(C)(C)NS(=O)(=O)c1ccc(NC(=O)Nc2ccc(Cl)cc2)cc1	112	78	-3	106
CCCCN(c1ccccc1)S(=O)(=O)c1ccc2c(c1)CC(C)N2C(=O)C1CC1 (centres undefined)	104	91	·	106
O=C(O)c1ccc(S(=O)(=O)N(Cl)Cl)cc1	93	89	-10	·
CCc1ccc(-c2ccc(Br)cc2)nc1	78	75	-8	·
CC(C)(CC(=O)O)CC(=O)NC1CCCCNC1=O (centres undefined)	93	94	-24	102
CCOC(=O)c1c2ccc(O)cc2n2ccccc12	·	·	-49	69*
O=C(CCC(=O)N1CCOc2ccccc21)N1CCN(c2ccccc2)CC1	106	85	-9	105
CN(C)S(=O)(=O)c1ccc2c(c1)C(=O)c1cc(S(=O)(=O)N(C)C)ccc1-2	102	84	-58	105
